Sa growth 42C: blocks Staphylococcus aureus growth. relative growth, % (test concentration not listed). S. aureus RN4220 growth, OD600, 20 h, 42 °C; stronger effect = lower value. actives 0.53% (n = 170,000);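 active means growth at 42 °C up to 50% and 20 or more points under that at 30 °C, or under 10% at both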;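 further: 300 nL library stock went into each well; scaled to the means of positive and negative controls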
HCMV UL50-53 inh: cytomegalovirus nuclear egress complex inhibition | HTRF UL50-UL53 interaction, normalized percent inhibition | inhibition, % (test concentration not listed) | actives 0.15% (n = 190,000);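 active means both replicates at 50% or more, plus weaker picks with an unusually low signal ratio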;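 further: stock transfer was 100 nL into about 20 µL; 0% = negative control wells and 100% = wells with untagged competitor protein; inactives centre near -12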
GIV Gai3 FP: inhibitors of GIV GBA-motif binding to rat Galpha-i3; P08753; Galpha-i3/FITC-GIV peptide fluorescence polarization, 90 min; stronger effect = lower value; scaled: aluminum fluoride 0%, vehicle 100%; percent of control (FP), % (no concentration beside the values); actives 0.42% (n = 210,000);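 active means replicate mean at 85% of control or lower, very high polarization wells dropped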;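 further: wells of about 15 µL received 100 nL stock; the first replicate is given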
Target sequence (P08753 whole entry, looked up): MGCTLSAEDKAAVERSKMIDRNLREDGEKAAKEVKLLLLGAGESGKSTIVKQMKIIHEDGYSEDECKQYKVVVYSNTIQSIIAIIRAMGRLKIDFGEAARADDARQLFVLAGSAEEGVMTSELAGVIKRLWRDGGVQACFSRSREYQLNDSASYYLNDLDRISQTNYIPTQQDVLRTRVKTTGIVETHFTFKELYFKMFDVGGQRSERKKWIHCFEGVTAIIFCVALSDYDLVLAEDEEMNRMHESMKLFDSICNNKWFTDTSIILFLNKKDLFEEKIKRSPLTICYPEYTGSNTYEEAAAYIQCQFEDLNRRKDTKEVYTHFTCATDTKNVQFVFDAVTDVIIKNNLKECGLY
Sa growth 42C second temp: recorded beside Sa growth 42C, whose call it bears; relative growth, %; measured here: growth at 30 °C;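 optical density after 20 h as mean of two plates; 100% = untreated growth and lower means inhibition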
Numbers without * were called inactive; . = no result given; & = joins results of further samples.

SMILES	Sa growth 42C	Sa growth 42C second temp	HCMV UL50-53 inh	GIV Gai3 FP
CCN1CCN(Cc2c(C)[nH]c3c(C)cc(C)cc3c2=O)CC1	109	118	2	102
O=C(CS(=O)(=O)c1cccc2nsnc12)Nc1cc(F)ccc1F	110	91	.	101
Cc1ccc2[nH]c(=O)c3cc(C(=O)NCCN4CCN(c5ccccc5F)CC4)sc3c2c1	101	95	.	105
O=C(Nc1ccc2c(c1)OCCO2)N1CCCC1c1ccc(Cl)cc1 (configuration not stated)	.	.	-32	95
O=C(O)/C=C/c1nc2ccccc2s1	109	93	-71	.
COC(=O)c1cc(-c2ccccc2)nc2ccccc12	58	87	-14	102
CCN(CC)CCNC(=O)c1ccc2c(c1)NC(=O)C(CS(=O)(=O)Cc1cccc(Br)c1)N2 (configuration not stated)	124	98	.	106
Cc1ccc(S(=O)(=O)c2nc(-c3ccccc3)oc2NCc2ccc3c(c2)OCO3)cc1	114	114	-2	100
CCOC(=O)c1sc2sc(C(=O)OCC)c3c2c1CN(Cc1ccccc1)C3	73	93	-1	99
CC(OC(=O)CSc1nc2ccccc2o1)c1nnc(-c2ccccc2)o1 (configuration not stated)	84	92	-17	.
O=C(CC(=O)c1c(F)cccc1F)c1ccccc1O	123	64	-7	105
COc1ccc2c(c1)CCc1c-2n[nH]c1-c1nc(-c2ccc(Cl)cc2)no1	.	.	9	99
O=C1c2ccccc2C(=O)N1Cc1cc(=O)n2ccsc2n1	101	98	1	.
Cc1ccc(-c2nc3c4ccccc4n(CC(=O)N4CCN(c5ccc(F)cc5)CC4)c(=O)n3n2)cc1	109	99	.	99
CCN1CCN(c2cc(C)c3cc(NC(=O)c4cc(OC)c(OC)c(OC)c4)ccc3n2)CC1	95	91	.	97
NC(=O)Cn1c(=O)c2ccc(Cl)cc2n2nncc12	93	84	-30	102
CN1C(=O)C(C#N)=C(N)C12CCCC2	98	89	-22	.
O=c1oc2ccccc2cc1-c1nnc(-c2cccc3ccccc23)o1	120	92	-12	.
CC(C(=O)Nc1ccc2c(c1)OCCO2)N(C)Cc1c(F)cccc1Cl (configuration not stated)	96	99	1	.
COc1ccc(-c2cc(-c3ccccc3)nc(SCC(N)=O)c2C#N)cc1	.	.	-4	101
COc1ccc2c(c1)sc(=NC(=O)c1cccc(S(C)(=O)=O)c1)n2C	100	84	-18	102
COc1ccc(-c2ccc(CCC(=O)O)n2Cc2ccco2)cc1	102	55	.	115
CCCCCn1cnc2scc(-c3ccccc3)c2c1=O	.	.	-22	97
O=C(CCc1ccccc1)N(Cc1cccnc1)c1nc2c(F)cccc2s1	65	58	.	100
Cc1nn2c(C)nc3sc4c(c3c2nc1=O)CC(C)(C)OC4	106	100	-34	113
Next part.
SMILES	Sa growth 42C	Sa growth 42C second temp	HCMV UL50-53 inh	GIV Gai3 FP
Cc1cc2ccccn2c1C#N	84	90	-23	.
Cc1nnc(SC(C(=O)N(C)C)c2ccccc2)n1C1CC1 (configuration not stated)	86	87	-27	.
COc1ccc(-c2cc3c(SCC(=O)Nc4nccs4)nccn3n2)cc1	.	.	-17	99
Cc1noc2c1C(c1ccccc1F)C1=C(CC(c3ccc(Cl)cc3)CC1=O)N2 (configuration not stated)	.	.	-15	107
CN(C)c1ccc(C(=O)NCc2ccc3c(c2)CCN3C(=O)c2ccccc2)cc1	113	99	.	102
Cc1ccc(-c2ccn[nH]2)cn1	118	84	-12	101
Cc1onc(-c2ccccc2)c1C(=O)NC(=S)Nc1sc2c(c1C#N)CCC2	106	83	-22	114
O=C(CSc1nc2ccccc2c(=O)n1-c1ccccc1)N1CCCC1	83	92	-8	.
COc1ccc(C(=O)CCC(=O)NCc2cc(OC)cc(OC)c2)cc1	110	99	-24	99
Cc1ccc(OCCNC(=O)c2ccccc2N)cc1	118	84	-5	.
Cc1cc(C(=O)COC(=O)c2ccc(N)cc2)c(C)n1-c1c(C)n(C)n(-c2ccccc2)c1=O	115	77	-13	.
CC(Oc1ccc(/C=C2\C(=O)NC(=O)N(c3ccccc3F)C2=O)cc1)C(=O)O (configuration not stated)	.	.	-4	104
N#CC1(P(=O)(c2ccccc2)c2ccccc2)CCCC1	95	93	-24	.
COc1ccc2c(c1)c1c(c(=O)n(Cc3ccccc3)c(=O)n1CC(=O)Nc1cc(C)cc(C)c1)n2C	122	85	.	107
COc1ccc(CC(=O)Nc2ccc(S(N)(=O)=O)cc2)cc1OC	108	75	-7	107
COc1ccc(N=CC2=C(Cl)c3cc(F)ccc3OC2)cc1	121	11	-7	120
CC(Sc1nc(-c2ccccc2)cc(=O)[nH]1)C(=O)NC1CCCCC1 (configuration not stated)	118	101	-24	104
CCOc1ccc(CCNC(=O)c2c(-n3cccc3)sc(C)c2C)cc1OCC	122	90	.	103
CC(=O)Nc1ccc(S(=O)(=O)N2CCCC(c3nnc(SCc4ccccc4)n3C)C2)cc1 (configuration not stated)	90	84	-7	100
COc1ccc(/C=C2/SC(=O)N(CC(=O)Nc3cc(C)on3)C2=O)cc1OC	.	.	-36	99
O=C(Cn1c2ccccc2c2cn[nH]c(=O)c21)NCCc1ccc(Cl)cc1	112	64	.	110
CCOC(=O)c1sc(SCc2ccccc2)c(S(=O)(=O)C(C)C)c1-n1cccc1	108	91	14	102
COc1ccccc1N(CCN1C(=O)c2cccc3cccc(c23)C1=O)C(=O)c1cc(OC)c(OC)c(OC)c1	.	.	-16	101
Cc1c(O)cccc1C(=O)N[C@@H](CSc1ccccc1)[C@H](O)CN1C[C@H]2CCCC[C@H]2C[C@H]1C(=O)NC(C)(C)C	100&103	81&90	-32&0	98&105
COC(=O)N/N=C/c1cccc(C(F)(F)F)c1	107	86	-20	.
More entries follow:
SMILES	Sa growth 42C	Sa growth 42C second temp	HCMV UL50-53 inh	GIV Gai3 FP
Cc1ccc(Oc2ccc(OCC(=O)Nc3ccncc3)cc2)cc1	143	60	-8	.
O=C(Nc1nc2c(cc3c4c(cccc42)CC3)s1)C1CC1	.	.	-20	103
COc1ccc(OC(=O)Nc2csc(Cc3ccsc3)n2)cc1	108	100	-14	109
O=c1cc(C(F)(F)F)[nH]c2c(OC(F)(F)F)cccc12	3.4*	3.4*	-9	99
CCc1cccc(NC(=O)Cn2c(=O)n(Cc3ccccc3)c(=O)c3c(C)c(C(=O)N(C)C)sc32)c1	93	94	.	100
CCc1ccc(Sc2cc(C(=O)NC3CC3)c3ccccc3n2)cc1	117	80	.	102
CN(C)C(=O)c1c(NC(=O)c2ccccc2)sc2c1CCC2	112	101	-8	96
COc1cc(/C=N/NC(N)=O)cc(Br)c1OC	82	93	-34	.
COc1ccc(NC(=O)Cn2c(=O)oc3cc(S(=O)(=O)N4CCC(C)CC4)ccc32)c(OC)c1	104	80	14&-38	105&101
Cc1ccc2oc(N3CCN(C(=O)c4ccc(-c5noc(C6CC6)n5)cc4)CC3)nc2n1	.	.	-10	105
Cc1cc(C)c(-n2nnnc2SCC(=O)C(C)(C)C)c(C)c1	99	110	-1	97
Cc1cc(Sc2ccccc2NC(=O)Nc2ccc(Br)cc2)n2ncnc2n1	.	.	-32	98
CC1(c2ccccc2)CC(C)(C)N(C(=O)c2ccccc2Cl)c2ccccc21 (configuration not stated)	99	94	-16	104
Cc1ccccc1NC(=O)Cn1c(=O)n(CCCCCC(=O)NCc2ccc3c(c2)OCO3)c(=O)c2sccc21	107	79	-14	103
CCN1CCN(c2oc(-c3ccc(COc4ccc(C)cc4)o3)nc2C#N)CC1	105	86	-44	101
COc1ccc(S(=O)(=O)n2nccc2-c2ccc(-c3cccs3)s2)cc1OC	108	92	-23	110
Cc1nnc(NC(=O)c2ccccc2Br)s1	111	89	-13	.
COc1ccccc1N1CCN(C(=O)CCS(=O)(=O)c2cc(Br)cc3c2N(C(C)=O)CC3)CC1	102	89	-3	98
O=C(NC1CC(=O)N(c2ccc(Cl)cc2)C1)c1ccc(S(=O)(=O)N2CCOCC2)cc1 (configuration not stated)	91	93	.	94
COc1ccc(NC(=O)CSCc2nc3cccnc3n2C2CCCCC2)cc1	.	.	-12	117
CCOC(=O)c1c(C)oc2nc(C)nc(NCC3CCN(Cc4ccc(F)cc4)CC3)c12	96	103	.	108
Cc1nc2nc(C)c(CCC(=O)NCc3cccc(Cl)c3)c(C)n2n1	86	91	-23	103
COC(=O)c1ccc(C(=O)OC)c(NC(=S)N2CC(C)CC(C)C2)c1 (configuration not stated)	85	85	.	112
COCCCNC(=O)c1ccc2c(c1)N(Cc1ccccc1)C(=O)CS2=O (configuration not stated)	.	.	-10	99
COc1cccc(NC(=O)c2cc(Cl)nnc2Cl)c1	106	98	-25	.

6 compounds from above, arranged by SMILES length, smallest number first.
SMILES	Sa growth 42C	Sa growth 42C second temp	HCMV UL50-53 inh	GIV Gai3 FP
Cc1cc(C)c(-n2nnnc2SCC(=O)C(C)(C)C)c(C)c1	99	110	-1	97
COC(=O)c1ccc(C(=O)OC)c(NC(=S)N2CC(C)CC(C)C2)c1 (configuration not stated)	85	85	.	112
CCOC(=O)c1c(C)oc2nc(C)nc(NCC3CCN(Cc4ccc(F)cc4)CC3)c12	96	103	.	108
O=C(NC1CC(=O)N(c2ccc(Cl)cc2)C1)c1ccc(S(=O)(=O)N2CCOCC2)cc1 (configuration not stated)	91	93	.	94
COc1ccccc1N1CCN(C(=O)CCS(=O)(=O)c2cc(Br)cc3c2N(C(C)=O)CC3)CC1	102	89	-3	98
COc1ccc(NC(=O)Cn2c(=O)oc3cc(S(=O)(=O)N4CCC(C)CC4)ccc32)c(OC)c1	104	80	14&-38	105&101

Entries of single compounds, quoted from the list. Order of screens: Sa growth 42C | Sa growth 42C second temp | HCMV UL50-53 inh | GIV Gai3 FP
Results for COCCCNC(=O)c1ccc2c(c1)N(Cc1ccccc1)C(=O)CS2=O (configuration not stated) → . | . | -10 | 99
Results for Cc1cc(C)c(-n2nnnc2SCC(=O)C(C)(C)C)c(C)c1 → 99 | 110 | -1 | 97
Results for CN(C)C(=O)c1c(NC(=O)c2ccccc2)sc2c1CCC2 → 112 | 101 | -8 | 96

(list continues)
SMILES	Sa growth 42C	Sa growth 42C second temp	HCMV UL50-53 inh	GIV Gai3 FP
O=C(Cn1c2ccccc2c(=O)c2cc(Cl)ccc21)Nc1ccc(C(F)(F)F)cc1	.	.	6	104
O=C(OCC(=O)c1c[nH]c2ccccc12)c1cccs1	99	98	-14	.
COc1ccc(C2c3cccn3CCN2S(=O)(=O)c2ccc(NC(C)=O)cc2)cc1OC (configuration not stated)	98	82	-22	104
CCOC(=O)c1sc(-c2ccccc2)nc1CSc1nnc(SC)s1	106	92	-6	101
O=c1oc2c(CN3CCOCC3)c(O)ccc2cc1-c1ccc(Cl)cc1	55	48	.	122
COCc1c(C(=O)Oc2ccc(-n3cnnn3)cc2)sc2cccc(F)c12	93	80	-24	.
COc1ccc(-c2nn(C)c(=O)c3ccccc23)cc1CNC(=O)NC1CCCCC1	103	81	.	100
CC(C)(C)c1ccc(CNC(=O)C2CCCN2S(=O)(=O)c2ccccc2)cc1 (configuration not stated)	105	103	11	.
CCNCC(O)COc1cc(C)c(Cl)c(C)c1 (configuration not stated)	78	108	-11	102
CCOC(=O)c1c(C)[nH]c(C)c1S(=O)(=O)N1CCC(C(=O)Nc2ccc(OCC)cc2)CC1	81	85	.	102
Cc1ccc(CNC(=O)c2nc(N3CCOCC3)c3ccccc3n2)cc1	.	.	-38	101
O=C(NCC(=O)N1CCCC1)c1ccc(Br)cc1	93	90	-21	.
COC(=O)c1cc(OCC(=O)N2CC(C)CC(C)C2)cc(C(=O)OC)c1 (configuration not stated)	108	97	1	.
CCCC(=O)Nc1ccc(SCc2cc(=O)n3c(ncn3C(C)C)n2)cc1	.	.	-19	99
O=C(Cn1ncc2c3ccccc3n(Cc3ccccc3)c2c1=O)NC1CCCC1	100	95	6	106
CC(C)NC(=O)c1nc2ccccc2s1	93	69	-4	102
CC1=C(C#N)C(c2cccc(Oc3ccccc3)c2)C2=C(CCCC2=O)N1 (configuration not stated)	97	85	-36	97
COc1ccc(Cl)cc1NC(=O)c1cc(-c2ccc3c(c2)OCO3)on1	99	87	-6	101
O=C(c1ccccc1)c1cnc2cc3c(cc2c1S(=O)(=O)c1ccccc1)OCCO3	.	.	-49	101
CCCCN(Cc1cc2cc(OC)ccc2[nH]c1=O)S(C)(=O)=O	101	80	.	103
O=C(O)c1cc(N2CCN(CC(=O)N3CCCC3)CC2)nc2ccc(NC(=O)C3CCCC3)cc12	.	.	-36	104
COC(=O)c1ccc(COC(=O)c2ccc3c(=O)n4c(nc3c2)CCCCC4)o1	93	94	-7	.
O=C1Cc2ccccc2C(=O)N1	92	92	100*	.
O=C1c2ccccc2C(Nc2ccc3c(c2)OCCO3)N1c1ccccn1 (configuration not stated)	105	98	.	98
CCc1ccccc1N1CC(c2nc3ccccc3n2CCCCOc2ccccc2OC)CC1=O (configuration not stated)	76	62	18	106
Next part
SMILES	Sa growth 42C	Sa growth 42C second temp	HCMV UL50-53 inh	GIV Gai3 FP
CCOc1nc2c(c(C)nn2-c2ccc(C)cc2)c(C)c1CCC(=O)Nc1ccc(F)cc1	.	.	-14	113
CCCn1c(-c2nonc2N)nc2ccccc21	111	80	-4	.
c1ccc(CCNc2ccccc2)cc1	119	82	-2	107
COC(=O)CSc1nnc2c3ccccc3n(CCc3ccccc3)c2n1	106	99	7	100
Cc1ccc(-c2noc(CN(Cc3ccco3)S(C)(=O)=O)n2)cc1	84	83	-3	105
COc1ccc(C(=O)Nc2nnc(S(=O)(=O)N(C)c3ccc(C)cc3)s2)cc1	98	92	-17	102
O=C(C(=C1NCCN1)n1ccnc1)c1ccc(Cl)cc1	87	93	13	.

Screening data as filed in PubChem.
